Vaccinia inh – blocks a specific stage of Vaccinia orthopoxvirus infection, primary screen, cell-based, single point; Vaccinia-infected cells, mCherry/Venus stage reporter fluorescence; stronger effect = lower value; some inactives read as strong as hits; activity change (mCherry), % (test concentration not listed); actives 0.01% (n = 89,000); AID 1053133, 2014;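 active = mCherry past -33% and 40 or more points under the early reporter, replicates agreeing; inconclusive = past -33% without that gap or agreement; tested in A549 cells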;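 also: scaled between vehicle wells and reference inhibitor wells; 23 nL library stock went into each well; one replicate is shown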
Vaccinia inh Venus – recorded beside Vaccinia inh, whose call it bears; activity change (Venus), %; measured here: Venus reporter, other viral stage;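 negative = less Venus signal; first of two replicates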
An asterisk follows results filed as active; & = joins results of further samples. Some of the compounds tested; rates above refer to the full screens.

How did C[C@@H]1CN([C@H](C)CO)C(=O)c2cccc(NC(=O)c3nc4ccccc4s3)c2O[C@@H]1CN(C)Cc1ccc(Oc2ccccc2)cc1 do in these assays?
Vaccinia inh: -11.3; Vaccinia inh Venus: -11.5

How did COc1cccc(C#Cc2ccc([C@H]3[C@H](C#N)N(C(=O)C4CC4)[C@H]3CO)cc2)c1 do in these assays?
Vaccinia inh: -34.7; Vaccinia inh Venus: -19.9

What do the screens show for `Cc1ccc(S(=O)(=O)N[C@H]2CC[C@H](CCNC(=O)C3CC3)O[C@H]2CO)cc1`?
Vaccinia inh: 1.3; Vaccinia inh Venus: 1.6

What do the screens show for `COCC(=O)N1C[C@@H](C)[C@@H](OC)CN(C)C(=O)c2ccc(NC(=O)c3ccc(F)cc3)cc2OC[C@@H]1C`?
Vaccinia inh: 2.6; Vaccinia inh Venus: -3.2

Results for O=C([C@H]1[C@H](CO)[C@H]2Cn3c(ccc(-c4ccccc4F)c3=O)[C@@H]1N2C(=O)C1CC1)N1CCOCC1 ?
Vaccinia inh: 8.9; Vaccinia inh Venus: 2.5

What do the screens show for `O=C(C[C@@H]1CC[C@H]2[C@@H](COC[C@H](O)CN2Cc2cc(F)ccc2F)O1)N[C@@H]1CCN(Cc2ccccc2)C1`?
Vaccinia inh: -1.8; Vaccinia inh Venus: -3.9

Results for CNC(=O)C[C@H]1CC[C@H]2[C@@H](COc3ccc(NC(=O)Nc4cccc(Cl)c4)cc3C(=O)N2C)O1 ?
Vaccinia inh: 10.7; Vaccinia inh Venus: 4.3

What do the screens show for `C[C@@H]1CN([C@H](C)CO)C(=O)Cc2cc(NC(=O)Nc3ccc(C(F)(F)F)cc3)ccc2O[C@@H]1CN(C)S(=O)(=O)c1ccccc1`?
Vaccinia inh: inconclusive

Results for O=C(C[C@@H]1C[C@@H]2c3cc(NC(=O)C4CCC4)ccc3O[C@@H]2[C@@H](CO)O1)NCc1cc(F)ccc1F ?
Vaccinia inh: 6.1; Vaccinia inh Venus: 5.5

What do the screens show for `C[C@@H]1CCCCO[C@@H](CN(C)C(=O)Nc2ccc3c(c2)OCO3)[C@@H](C)CN([C@H](C)CO)C(=O)c2cc(NC(=O)Nc3ccc4c(c3)OCO4)ccc2O1`?
Vaccinia inh: 7.3; Vaccinia inh Venus: -3.1

How did CCCc1cn(CC[C@@H]2CC[C@H](NC(=O)Cc3cccnc3)[C@H](CO)O2)nn1 do in these assays?
Vaccinia inh: 10.0; Vaccinia inh Venus: -3.0

How did CN1c2ccc(-c3ccccc3)cc2[C@H]2[C@H](CCN2C(=O)Nc2ccccc2F)[C@H]1CO do in these assays?
Vaccinia inh: inconclusive

How did CC(C)NC(=O)Nc1ccc2c(c1)C(=O)N([C@@H](C)CO)C[C@H](C)[C@@H](CN(C)C(=O)Nc1ccccc1)O2 do in these assays?
Vaccinia inh: 12.8; Vaccinia inh Venus: 17.4

How did CO[C@H]1CN(C)C(=O)c2ccc(NS(=O)(=O)c3cn(C)cn3)cc2OC[C@@H](C)N(CCC(F)(F)F)C[C@@H]1C do in these assays?
Vaccinia inh: 6.1; Vaccinia inh Venus: 12.5

How did C[C@@H]1CN([C@H](C)CO)C(=O)c2cccc(NC(=O)Nc3ccc(C(F)(F)F)cc3)c2O[C@@H]1CN(C)CC1CC1 do in these assays?
Vaccinia inh: -19.8; Vaccinia inh Venus: -10.4

Results for C[C@H]1CCCCO[C@H](CN(C)C(=O)Nc2ccc3c(c2)OCO3)[C@@H](C)CN([C@@H](C)CO)C(=O)c2cc(NS(=O)(=O)c3ccc(Cl)cc3)ccc2O1 ?
Vaccinia inh: -6.8; Vaccinia inh Venus: -8.0

Results for COc1ccc(NC(=O)N(C)C[C@@H]2Oc3ccc(NC(=O)Cc4cn(C)c5ccccc45)cc3C(=O)N([C@H](C)CO)C[C@@H]2C)cc1 ?
Vaccinia inh: 14.5; Vaccinia inh Venus: 10.6

Results for C[C@@H]1CCCCO[C@H](CN(C)C(=O)Nc2ccccc2)[C@H](C)CN([C@@H](C)CO)C(=O)c2cc(NS(=O)(=O)c3cn(C)cn3)ccc2O1 ?
Vaccinia inh: 29.8; Vaccinia inh Venus: 13.9

What do the screens show for `CC(C)C#Cc1cnc2c(c1)C(=O)N([C@@H](C)CO)C[C@H](C)[C@@H](CN(C)C(=O)c1ccc3c(c1)OCO3)O2`?
Vaccinia inh: 13.7; Vaccinia inh Venus: 3.0

Results for C[C@@H]1CN([C@@H](C)CO)C(=O)c2cc(NS(=O)(=O)c3ccccc3)ccc2O[C@@H]1CN(C)CC1CCCCC1 ?
Vaccinia inh: -10.2; Vaccinia inh Venus: -11.0

5 compounds already listed, sorted by formula weight, largest number first:
Results for C[C@H]1CCCCO[C@H](CN(C)C(=O)Nc2ccc3c(c2)OCO3)[C@@H](C)CN([C@@H](C)CO)C(=O)c2cc(NS(=O)(=O)c3ccc(Cl)cc3)ccc2O1 ?
Vaccinia inh: -6.8; Vaccinia inh Venus: -8.0

Results for C[C@@H]1CCCCO[C@H](CN(C)C(=O)Nc2ccccc2)[C@H](C)CN([C@@H](C)CO)C(=O)c2cc(NS(=O)(=O)c3cn(C)cn3)ccc2O1 ?
Vaccinia inh: 29.8; Vaccinia inh Venus: 13.9

Results for CNC(=O)C[C@H]1CC[C@H]2[C@@H](COc3ccc(NC(=O)Nc4cccc(Cl)c4)cc3C(=O)N2C)O1 ?
Vaccinia inh: 10.7; Vaccinia inh Venus: 4.3

What do the screens show for `Cc1ccc(S(=O)(=O)N[C@H]2CC[C@H](CCNC(=O)C3CC3)O[C@H]2CO)cc1`?
Vaccinia inh: 1.3; Vaccinia inh Venus: 1.6

How did CCCc1cn(CC[C@@H]2CC[C@H](NC(=O)Cc3cccnc3)[C@H](CO)O2)nn1 do in these assays?
Vaccinia inh: 10.0; Vaccinia inh Venus: -3.0

Next compounds.
What do the screens show for `CC(=O)N(C)C[C@@H]1Oc2ncc(-c3ccccc3C)cc2C(=O)N([C@H](C)CO)C[C@@H]1C`?
Vaccinia inh: 7.2; Vaccinia inh Venus: 4.0

What do the screens show for `CN1C(=O)c2cc(NC(=O)c3ccc(C#N)cc3)ccc2OC[C@H]2O[C@@H](CC(=O)NCc3ccc4c(c3)OCO4)CC[C@@H]21`?
Vaccinia inh: 1.2; Vaccinia inh Venus: 4.4

What do the screens show for `CO[C@H]1CN(C)C(=O)c2ccc(NC(=O)c3ccccc3)cc2OC[C@@H](C)N(CC2CC2)C[C@H]1C`?
Vaccinia inh: -4.7; Vaccinia inh Venus: -3.6

How did Cc1noc(C)c1S(=O)(=O)Nc1ccc2c(c1)CC(=O)N([C@@H](C)CO)C[C@@H](C)[C@@H](CN(C)CC1CC1)O2 do in these assays?
Vaccinia inh: -11.9; Vaccinia inh Venus: 2.1

Results for O=C(CN1CCOCC1)N1CCCCN2[C@H](CO)[C@H](c3ccc(-c4ccccc4)cc3)[C@@H]2C1 ?
Vaccinia inh: 20.5; Vaccinia inh Venus: 9.7

How did Cc1ccccc1-c1ccc([C@@H]2[C@H]3CN(C(=O)Nc4ccc(F)cc4)CCCCN3[C@H]2CO)cc1 do in these assays?
Vaccinia inh: inconclusive

How did C[C@H]1CN([C@@H](C)CO)C(=O)Cc2cc(NC(=O)Cn3cnnn3)ccc2O[C@H]1CN(C)Cc1ccncc1 do in these assays?
Vaccinia inh: -2.0; Vaccinia inh Venus: 1.4

How did CO[C@@H]1CN(C)C(=O)c2ccc(NC(=O)Nc3cccc(F)c3)cc2OC[C@@H](C)N(C)C[C@@H]1C do in these assays?
Vaccinia inh: -15.7; Vaccinia inh Venus: -7.9

How did CS(=O)(=O)N1[C@H](CO)[C@H](c2ccccc2)C12CN(C(=O)C1CC1)C2 do in these assays?
Vaccinia inh: 2.1; Vaccinia inh Venus: 7.8

Results for C[C@H]1CN([C@@H](C)CO)C(=O)c2cc(N(C)C)ccc2O[C@@H]1CN(C)C(=O)Nc1cccc2ccccc12 ?
Vaccinia inh: 27.8; Vaccinia inh Venus: 16.2

How did Cc1cccc(S(=O)(=O)N2CC[C@@H]3[C@@H](CO)N(C)c4ccc(Br)cc4[C@@H]32)c1 do in these assays?
Vaccinia inh: -24.8; Vaccinia inh Venus: -26.4

What do the screens show for `COc1ccccc1-c1cnc2c(c1)C(=O)N([C@@H](C)CO)C[C@H](C)[C@H](CN(C)C)O2`?
Vaccinia inh: 8.0&11.1; Vaccinia inh Venus: -4.4&-0.4

Results for C[C@H](CO)N1C[C@H](C)[C@@H](CN(C)CC2CCCCC2)OCCCC[C@H](C)Oc2ccc(NC(=O)Cc3ccccc3)cc2C1=O ?
Vaccinia inh: -28.8; Vaccinia inh Venus: -17.8

What do the screens show for `C/C=C/c1ccccc1[C@H]1[C@@H](C#N)N(C(=O)NC2CCCCC2)[C@H]1CO`?
Vaccinia inh: -18.6; Vaccinia inh Venus: -9.7

Results for O=C(Nc1ccc(F)cc1)N[C@@H]1CC[C@H](CCNS(=O)(=O)c2cccc(Cl)c2)O[C@@H]1CO ?
Vaccinia inh: -13.3; Vaccinia inh Venus: -14.5

How did C[C@H](CO)N1C[C@H](C)[C@@H](CN(C)C(=O)Cc2ccccn2)Oc2ncc(/C=C/c3ccccc3)cc2C1=O do in these assays?
Vaccinia inh: 12.5; Vaccinia inh Venus: 7.8

How did C[C@@H]1CN([C@H](C)CO)C(=O)c2cccc(NS(=O)(=O)c3ccccc3)c2O[C@H]1CN(C)CC1CC1 do in these assays?
Vaccinia inh: -2.9; Vaccinia inh Venus: 1.3

Results for C[C@@H]1CN([C@@H](C)CO)S(=O)(=O)c2ccc(C#Cc3ccc(F)cc3)cc2O[C@H]1CN(C)C(=O)NC1CCCCC1 ?
Vaccinia inh: inconclusive

Results for C[C@H]1CN([C@@H](C)CO)C(=O)c2c(c3ccccc3n2C)-c2ccccc2CO[C@@H]1CN(C)C(=O)Nc1ccc(F)cc1 ?
Vaccinia inh: -26.7; Vaccinia inh Venus: -25.9

What do the screens show for `Cc1cc(C(=O)Nc2cccc3c2O[C@H](CN(C)S(=O)(=O)c2ccc(Cl)cc2)[C@@H](C)CN([C@@H](C)CO)C3=O)n(C)n1`?
Vaccinia inh: 18.7; Vaccinia inh Venus: 15.7

What do the screens show for `C[C@H]1CN([C@@H](C)CO)C(=O)c2cccc(NC(=O)C3CCOCC3)c2O[C@H]1CN(C)C`?
Vaccinia inh: -17.1; Vaccinia inh Venus: -19.9

Results for CCCN(C)C[C@H]1Oc2ncc(-c3cccc(C(=O)N(C)C)c3)cc2C(=O)N([C@H](C)CO)C[C@H]1C ?
Vaccinia inh: 26.1; Vaccinia inh Venus: 3.6

Results for O=C(C[C@H]1C[C@H]2c3cc(NC(=O)NC4CCCCC4)ccc3O[C@H]2[C@@H](CO)O1)NCc1ccccc1 ?
Vaccinia inh: 16.8; Vaccinia inh Venus: 14.8

How did O=C(C[C@@H]1CC[C@@H](NC(=O)CC2CC2)[C@H](CO)O1)NCc1ccc(Cl)cc1 do in these assays?
Vaccinia inh: 12.0; Vaccinia inh Venus: 10.9

What do the screens show for `O=C(Nc1ccccc1F)N1C[C@H]2[C@@H](c3ccccc31)[C@H](CO)N2C(=O)c1ccccn1`?
Vaccinia inh: 17.3; Vaccinia inh Venus: 20.9

Results for Cc1noc(C)c1NC(=O)N(C)C[C@@H]1Oc2c(NC(=O)Nc3ccc4c(c3)OCO4)cccc2C(=O)N([C@H](C)CO)C[C@H]1C ?
Vaccinia inh: 13.5; Vaccinia inh Venus: 12.3

What do the screens show for `Cc1noc(C)c1NC(=O)N(C)C[C@@H]1Oc2ccc(NS(=O)(=O)c3cn(C)cn3)cc2C(=O)N([C@H](C)CO)C[C@@H]1C`?
Vaccinia inh: 17.1; Vaccinia inh Venus: 7.9

What do the screens show for `COc1ccc(NC(=O)Nc2ccc3c(c2)C(=O)N([C@H](C)CO)C[C@@H](C)[C@@H](CN(C)C(=O)Nc2ccc4c(c2)OCO4)OCCCC[C@@H](C)O3)cc1`?
Vaccinia inh: 13.4; Vaccinia inh Venus: 9.8

How did C[C@@H]1CN([C@@H](C)CO)C(=O)Cc2cc(NC(=O)Nc3cccc4ccccc34)ccc2O[C@@H]1CN(C)C(=O)Nc1ccccc1 do in these assays?
Vaccinia inh: 0.3; Vaccinia inh Venus: 10.3

What do the screens show for `COc1ccc(NC(=O)Nc2ccc3c(c2)[C@@H]2C[C@@H](CC(=O)NCc4ccc5c(c4)OCO5)O[C@H](CO)[C@@H]2O3)cc1`?
Vaccinia inh: 11.6; Vaccinia inh Venus: 8.5

How did C[C@@H]1CN([C@@H](C)CO)C(=O)c2cc(C#C[C@@H](C)O)cnc2O[C@@H]1CN(C)C(=O)Cc1ccncc1 do in these assays?
Vaccinia inh: 17.2; Vaccinia inh Venus: 7.7

What do the screens show for `CCS(=O)(=O)N1CC(=O)N2[C@@H](CO)[C@H](c3ccc(C#CC4CCCC4)cc3)[C@@H]2C1`?
Vaccinia inh: 4.5; Vaccinia inh Venus: 2.9

What do the screens show for `O=C(C1CCOCC1)N1C[C@@H]2[C@H](c3ccccc31)[C@@H](CO)N2C(=O)Cc1ccccc1`?
Vaccinia inh: 9.5; Vaccinia inh Venus: 3.3

Results for Cc1cccc(-c2ccc([C@H]3[C@@H](CO)N4CCCCN(S(=O)(=O)c5ccccc5C)C[C@@H]34)cc2)c1 ?
Vaccinia inh: -30.0; Vaccinia inh Venus: -21.1

How did COCC(=O)N(C)C[C@@H]1Oc2ncc(/C=C/c3ccccc3)cc2C(=O)N([C@@H](C)CO)C[C@@H]1C do in these assays?
Vaccinia inh: 11.5; Vaccinia inh Venus: 0.8

What do the screens show for `C[C@@H]1CN([C@H](C)CO)C(=O)c2cccc(NC(=O)Nc3ccccc3)c2O[C@H]1CN(C)C(=O)NC1CCCCC1`?
Vaccinia inh: -7.0; Vaccinia inh Venus: -5.4

What do the screens show for `CCS(=O)(=O)N1CCCCN2[C@H](C1)[C@@H](c1ccc(C#CC(C)(C)O)cc1)[C@@H]2CO`?
Vaccinia inh: 21.8; Vaccinia inh Venus: 13.3

What do the screens show for `Cc1ccc(-c2cnc3c(c2)C(=O)N([C@@H](C)CO)C[C@H](C)[C@@H](CN(C)C(=O)c2cccc(F)c2)O3)cc1`?
Vaccinia inh: -34.7; Vaccinia inh Venus: -22.2
